NPYLR7 agonist: agonists of mosquito NPYLR7 receptor, primary screen, cell-based, Aedes aegypti, calcium fluorescence, mosquito biting behavior. hit rate 0.15% among 270,000. HEK293T NPYLR7/Galpha15, GCaMP6s calcium fluorescence. Aedes aegypti neuropeptide Y-like receptor 7 (NPYLR7). AID 1259423, 2018. activation, % at 10 µM; in the data active = activation above about 40%;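 also: 0% = vehicle and 100% = reference agonist at the receptor; some compounds past the cut are filed as inactive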
NPYLR7 agonist max-min: second read-out of NPYLR7 agonist, no call of its own (marks repeat the call); activation, %; measured here: Max-Min RFU normalised activation; some inactives read as strong as hits;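 span of the calcium signal over five minutes; 0% = vehicle and 100% = native peptide agonist; compound fluorescence can raise it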
Active calls of the source: *; & = joins results of further samples. This is a subset (hit frequency here may not be typical).

Screens in order: NPYLR7 agonist, NPYLR7 agonist max-min
> Cc1ccccc1-n1c(C)nnc1SCc1ccc(C(=O)NCc2ccc(F)cc2)cc1
 : -8.3, 4.7
> CN1c2ccccc2CC(C#N)(c2nc3ccccc3s2)C12CCCCC2 (stereo unspecified)
 : -0.1, 2.5
> COCCNC(=O)C(NC(=O)c1ccccc1C)C1CCN(C(=O)Nc2ccc(C)cc2)CC1 (stereo unspecified)
 : 2.2, 2.3
> O=C(O)Cc1coc2cc(O)ccc12
 : -3.0, -2.7
> CN1Cc2ccccc2CC1C(=O)NCc1cc2ccc(F)cc2[nH]c1=O (stereo unspecified)
 : 2.8, 0.0
> Cc1cc(Cl)ccc1OCc1ccc(C(N)=O)cc1
 : 0.2, -0.9
> O=C(c1ccc(Cl)cc1)N1N=C(C(F)(F)F)CC1(O)c1ccccc1 (stereo unspecified)
 : -2.7, -1.0
> O=c1[nH]c(CN2CCC(c3nc4ccccc4s3)CC2)nc2ccsc12
 : 7.7, 7.3
> COCc1cc(C)nc(OCC(=O)N/N=C\c2cccs2)c1C#N
 : -3.5, -9.4
> Cc1c(C2NC3(CCCC3)C(=O)N2CC2CC2)cc(C#N)n1C (stereo unspecified)
 : 5.7, 6.2
> Cc1ncc(CO)c2c1Oc1nc(-c3cccc(Cl)c3)nc(SCC(=O)N3CCOCC3)c1C2
 : 8.3, 8.3
> Cc1nnc(SCCCNC(=O)c2ncc[nH]2)s1
 : 4.3, 1.1
> CC(C)c1nccc(CN2CCCCC2CCc2ccc(O)cc2)n1 (stereo unspecified)
 : 2.4, 0.6
> CC(C)C(CNc1ccc(S(=O)(=O)N2CCCCCC2)cc1[N+](=O)[O-])N1CCOCC1 (stereo unspecified)
 : 12.9, 9.5
> Cc1ccc2oc(CN(Cc3ccccc3Cl)C(=O)COCc3ccccc3)nc2c1
 : -5.3, -2.6
> Cc1ccc(N2CCC(n3nccc3NC(=O)c3ccccc3C)CC2)nn1
 : -5.6, -6.3
> Cc1ccc(F)c(CC(=O)N2CCOC(COc3ccc(F)cc3)C2)c1F (stereo unspecified)
 : 12.0, 5.5
> Cc1ccc(C(C)CCN2CCC3(CC2)C(=O)N(C(C)C)C(=O)N3CCC(C)C)o1 (stereo unspecified)
 : -9.3, -12.8
> CCOc1ccc(CNC(=O)N(CC)Cc2ccoc2)cc1F
 : 0.0, 1.4
> COc1ccc(-c2cc3c(=O)n(CC(=O)Nc4ccc(C)cc4Br)ccn3n2)cc1OC
 : 10.5, 7.9
> O=C(Nc1ccc2c(c1)OCCO2)c1cc(F)ccc1Br
 : 5.8, -1.7
> Cc1ccc(-c2ocnc2C(=O)OCc2cccc(C(N)=O)c2)cc1
 : -0.2, -1.7
> O=c1c[n+]([O-])c2ccccc2n1OCc1ccc(Oc2ccccc2)cc1
 : -2.9, -3.5
> O=C1OC(/C=C/c2ccccc2)=NC/1=C/c1ccc([N+](=O)[O-])cc1
 : -0.8, -2.0
> COc1ccc(C)cc1S(=O)(=O)C1CS(=O)(=O)CC1N1CCOCC1 (stereo unspecified)
 : 0.0, -1.4
> CCOc1cn2c(cc1=O)C(=O)N(CCNC(=O)c1ccc(C(C)(C)C)cc1)CC2
 : 12.6, 6.4
> CCn1nc(NC(=O)NCc2cccc(N(C)C)c2)cc1C1CC1
 : -2.6, -3.8
> C=CCn1c(N(C)Cc2ccccc2)nc2c1c(=O)[nH]c(=O)n2C
 : 2.8, -0.6
> Cc1ccc(-c2ccc(CCC(=O)NCc3cccs3)n2-c2ccc(CC#N)cc2)c(C)c1
 : -2.2, -4.8
> C=CCOC(=O)C1=C(C)N=c2sc(=Cc3ccc(C)o3)c(=O)n2C1c1ccccc1 (stereo unspecified)
 : -5.3, -11.2
> CCc1ccc(NC(=O)N(CC(=O)N(CCc2c[nH]c3ccccc23)Cc2ccc(OC)c(OC)c2)CC(C)C)cc1
 : 22.7, 19.5
> COc1ccc(/C=C2\Oc3c(cc(COC(C)=O)c(OC(C)=O)c3C)C2=O)cc1OC
 : -3.6, -5.2
> COCCn1c(CN(C)C(C)C)cnc1S(=O)(=O)C1CCCCCC1
 : 1.4, -1.2
> CCc1cnc(C)nc1N1Cc2cnc(-c3ccccc3)nc2C1
 : -1.2, -0.9
> CCC(C)c1ccc(-n2c(-c3cc(C)c(OC)cc3C)nc3ccccc3c2=O)cc1 (stereo unspecified)
 : 4.6, -2.3
> CC(C)c1c(O)nc(SCCN(C)C)[nH]c1=O
 : 0.5, -3.2
> CSc1cccc(CN(C)C(=O)c2ncn[nH]2)c1
 : 10.1, 6.6
> COc1ccccc1NC(=O)N1CCn2cccc2C1C (stereo unspecified)
 : 1.7, 1.2
> CC(C)n1ncc2cc(NC(=O)CCCNC(=O)c3cccs3)cnc21
 : -1.1, 16.0
> CCCn1c(C)cc(C(=O)Cn2cnc3sccc3c2=O)c1C
 : 13.9, 9.3
> COc1ccc(C(NC(=O)C2CCN(CCCOc3ccccc3)CC2)c2cccs2)cc1 (stereo unspecified)
 : 6.4, -7.9
> COc1cccc([C@@H](C)NC(=O)c2c(C)noc2-c2ccncc2)c1
 : 7.8, 6.4
> CCn1c(CC2CCN(CCn3c(=O)oc4ccccc43)CC2)n[nH]c1=O
 : -8.9, -15.5
> CCCn1c2c(=O)n(C)c(=O)n(C)c2n2c(-c3ccccc3Cl)nnc12
 : 5.2, 1.5
> Cc1c(C(=O)N2CCC(Cc3ccccc3)CC2)cc(-c2ccccc2)n1-c1ccc(F)cc1F
 : -6.8, 1.2

Three structures out of the list, arranged by molecular weight, low to high:
Screens in order: NPYLR7 agonist, NPYLR7 agonist max-min
> CCc1cnc(C)nc1N1Cc2cnc(-c3ccccc3)nc2C1
 : -1.2, -0.9
> CCCn1c(C)cc(C(=O)Cn2cnc3sccc3c2=O)c1C
 : 13.9, 9.3
> COc1ccc(/C=C2\Oc3c(cc(COC(C)=O)c(OC(C)=O)c3C)C2=O)cc1OC
 : -3.6, -5.2

Next records follow:
Screens in order: NPYLR7 agonist, NPYLR7 agonist max-min
> COc1cc(=O)n(-c2ccccc2C)nc1C(=O)Nc1ccc(F)cc1F
 : 3.1, 3.7
> C=CCNCc1cccc(OC)c1OCC(=O)NC(C)(C)C
 : 3.9, 2.5
> COc1ccc(NC(=O)C(=O)NCCN2CCN(C(=O)c3ccc(Br)cc3)CC2)cc1
 : -22.7, -19.5
> COc1ccc(NC(=O)N2C[C@@H]3C[C@H](C2)c2ccc(NS(=O)(=O)Cc4ccccc4)c(=O)n2C3)cc1
 : -4.9, -13.5
> O=C(Nc1nc(-c2ccccc2)cs1)C1c2ccccc2Oc2ccccc21
 : -5.2, -9.2
> c1ccc(Cc2n[nH]c(CSc3ccccc3)n2)cc1
 : 8.7, 0.0
> CCCCCCCCCCCCCCCCCCCCCCO
 : -0.1, -7.7
> CCCCNC(CC(=O)Nc1cc(Cl)ccc1O)C(=O)O (stereo unspecified)
 : 4.3, 3.0
> c1cncc(NCCNc2ncnc3sc4c(c23)CCNC4)c1
 : -7.9, -7.4
> CCCSc1ncccc1C(=O)NC(c1ccccc1)c1ccccn1 (stereo unspecified)
 : -0.5, -5.3
> Fc1ccc(C(c2ccc(F)cc2)N2CCN(C/C=C/c3ccccc3)CC2)cc1
 : -4.0&-0.9&-3.8, -7.9&-28.1&-8.5
> CCOC(=O)c1ccc(NC(=O)c2sc(NC(=O)c3cc(OC)c(OC)c(OC)c3)c(C(=O)OCC)c2C)cc1
 : 11.4, 10.1
> COc1ccccc1N=P(N(C)C)(N(C)C)C12CC3CC(CC(C3)C1)C2
 : 6.7, 4.2
> Cc1nc(CN2CCN(c3nccc(C4CCCC4)n3)CC2)no1
 : 7.3, 4.4
> COCCNC(=O)c1ccc(Cn2c(C)c(C)sc2=NC(=O)c2cccc(OC)c2)o1
 : 6.9, 3.2
> COc1cccc(CN2CCCC(O)(CNC3Cc4ccccc4C3)C2=O)c1 (stereo unspecified)
 : 2.0, 0.3
> CC(C)NC(=O)N1CCN(S(=O)(=O)c2cc(F)ccc2F)CC1
 : 0.3, 8.4
> Cc1cc(-c2cc(C(=O)NCC3CCCO3)c3c(C)noc3n2)c(C)s1 (stereo unspecified)
 : -1.6, -3.9
> Cc1cc(Br)cc(Cl)c1NC(=O)C1(C)CC1(Cl)Cl (stereo unspecified)
 : -0.3, 7.7
> COc1ccc2cc(-c3[nH]ncc3CN3CCOCC3)ccc2c1
 : 10.9, 3.1
> CCOC(=O)CCCC(=O)N1CCC(c2nc(-c3ccc(OC)cc3)no2)CC1
 : -0.8, -0.8
> Cc1nc(Cn2ncc(Cl)c(Cl)c2=O)cs1
 : 10.0, 11.2
> O=S(=O)(Nc1ccc(Br)cc1F)c1ccc(Cl)c(C(F)(F)F)c1
 : 1.5, 0.3
> COC(=O)Nc1ccc(S(=O)(=O)N(CCO)CCO)cc1
 : -8.2, -15.8
> COC(=O)C1=C(O)/C(=C\c2cc(OC)cc(OC)c2)SC1=Nc1cccc(F)c1
 : -0.4, 8.0
> Cc1[nH]c(-c2cc3cccc4c3n(c2=O)CCC4)nc1-c1ccccc1
 : 11.8, 6.2
> O=C(c1cccc(F)c1)N(CCN1CCOCC1)Cc1nccn1Cc1ccccc1F
 : -1.6, -1.5
> CC(=O)Nc1cc(NC(C)=O)cc(C(=O)NC2CCCCC2)c1
 : 12.4, 4.0
> CCc1ccccc1Nc1nc2ccccc2n1CC
 : -0.6, -0.3
> COc1cc(C2C3=C(CCCC3=O)OC(=N)C2C#N)ccc1OC(C)=O (stereo unspecified)
 : -12.0, -11.1

Given with each value named: entries from further up.
SMILES: CCOC(=O)CCCC(=O)N1CCC(c2nc(-c3ccc(OC)cc3)no2)CC1
  NPYLR7 agonist: -0.8; NPYLR7 agonist max-min: -0.8

SMILES: Cc1nc(Cn2ncc(Cl)c(Cl)c2=O)cs1
  NPYLR7 agonist: 10.0; NPYLR7 agonist max-min: 11.2

SMILES: O=S(=O)(Nc1ccc(Br)cc1F)c1ccc(Cl)c(C(F)(F)F)c1
  NPYLR7 agonist: 1.5; NPYLR7 agonist max-min: 0.3

(listing goes on)
Screens in order: NPYLR7 agonist, NPYLR7 agonist max-min
> COc1cc2c(cc1OC)C(CNC(=O)c1ccc3c(c1)OCO3)N(C(=O)NC(C)(C)C)CC2 (stereo unspecified)
 : -2.5, 4.5
> CCc1nc2c(OCC3COc4ccccc4O3)cccn2c1N(C)C(=O)c1ccc(OC)cc1 (stereo unspecified)
 : -2.5, -5.7
> CCc1cccc(NC(=O)N2CCSC2c2cc(OC)cc(OC)c2)c1 (stereo unspecified)
 : 3.2, 9.4
> CC(C)N(C)c1onc(-c2ccccc2)c1CN(Cc1ccco1)C(=O)c1ccco1
 : 15.7, 15.7
> COc1cccc(-c2cc(C(=O)NC3CC3)n3nc(C(C)(C)C)cc3n2)c1
 : 13.1&-13.1, 7.2&-8.2
> CC(C)=CCN1CCN(Cc2cnn(-c3ccccc3F)c2)CC1CCO (stereo unspecified)
 : -0.7, -1.4
> O=C(c1ccc([N+](=O)[O-])cc1)N1CCc2ccccc2C1
 : 3.6, 0.0
> O=C(Cc1ccc([N+](=O)[O-])cc1)N1CCN=C1SCc1ccccc1
 : 10.6, 6.8
> Cc1ncc([N+](=O)[O-])n1S(=O)(=O)c1ccccc1
 : 6.2, 8.6
> Cc1c(C)n2c3c(=O)n(CCc4ccccc4)c(=O)n(C)c3nc2n1CCN1CCOCC1
 : 0.8, 4.2
> NC(=O)Cc1nc(-c2ccncc2)n[nH]1
 : 6.6, 4.7
> Cc1cccc(-n2nc(-c3ccccc3F)cc2C(=O)N2CCN(c3ccccc3F)CC2)c1
 : -0.3, 1.8
> O=C(Nc1cccc(-c2nc3cc(Cl)ccc3o2)c1)c1ccc(F)cc1
 : 6.9, 7.0
> O=C(Cc1c(Cl)cccc1Cl)NC(c1ccccc1)c1ccccn1 (stereo unspecified)
 : -0.1, 3.7
> C=CCN(C(=O)Cn1cnc2c(C)cccc2c1=O)c1nc2c(s1)CCCC2
 : 11.9, 11.2
> COc1ccc(S(=O)(=O)NCCNc2cc(-n3nc(C)cc3C)ncn2)cc1Cl
 : -5.6, -11.0
> COc1cccc(C(NC(=O)C2CCN(Cc3cccc(Cl)c3)CC2)c2ccccn2)c1 (stereo unspecified)
 : -13.3, -17.2
> CCOc1cc(/C=C2/C(=N)N3C=CSC3=NC2=O)cc(Br)c1OC(=O)c1ccco1
 : -1.2, -1.4
> COc1ccc(OCC(=O)N=Nc2c(O)[nH]c3c(C)cc(Br)cc23)cc1
 : -1.8, -9.5
> CC(=O)Nc1c(=O)[nH]n2c(C)cc(C)nc12
 : -3.0, -3.5
> Cn1nc(-c2nccn2Cc2cccnc2)c2c(Cl)cccc21
 : 23.8, 15.1
> Cc1c(C(C)C)c(Cl)n2c(nc3ccccc32)c1C#N
 : 1.6, 8.1
> Cc1cc(C)n(-c2ccc(NC(=O)C3CCN(Cc4ccc(C)o4)CC3)cc2)n1
 : 11.4, 4.2
> CC(=O)NC(CC(=O)N1CCC2CCCCC2C1)c1ccc(C)cc1 (stereo unspecified)
 : 1.3, 0.0
> Cn1c(=O)n(CCc2ccccc2)c(=O)c2c1nc1n2CCN1Cc1ccccc1
 : 2.6, 3.4
> CCSCCOC(=O)C1=C(C)NC(=O)NC1c1ccc(N(CC)CC)cc1 (stereo unspecified)
 : 1.8, 4.5
> COc1ccc(OC)c(/C=C2\SC(N)=NC2=O)c1
 : -5.6, -10.4
> Cc1ccc(C2=N/C(=C\C(Br)=C\c3ccccc3)C(=O)O2)cc1[N+](=O)[O-]
 : -6.4, -9.5
> CCCCc1ccc(C(=O)N(CC(=O)N(Cc2ccccc2)Cc2cccn2Cc2ccc(F)cc2)C(C)C)cc1
 : -7.2, 5.1
